Mtb bLac sens – beta-lactam sensitization of Mtb H37Rv; M. tuberculosis H37Rv growth with meropenem, percent inhibition; hits of this screen are not shown here; inhibition, % at 25 µM; actives 0.27% (n = 330,000);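 active = about 74% or more and at least 40 points above the plate without the antibiotic, then above 30% in a dose series; inconclusive = first-round hits that could not be retested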;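 note: growth measured after seven days incubation then overnight dye step; 0% = bacteria only wells and 100% = bacteria with antibiotic; twin plates without the antibiotic show which effects depend on it; some results filed as inactive read as strong as hits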
Mtb H37Rv – M. tuberculosis H37Rv growth inhibitors, H37Rv strain (AID 1626); M. tuberculosis H37Rv growth inhibition; higher % means a stronger effect; actives 0.95% (n = 220,000); one-dose inhibition, % at 10 µM; IC50 in µM for titrated hits;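 active = confirmed in a dose series; inconclusive = inhibition above 80% but not taken into the dose series; inactive = below 80% or under 30% at every dose of the series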;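 note: bacteria incubated seven days before Alamar blue readout; 0% = bacteria only wells and 100% = bacteria with antibiotic wells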
Arbovirus anti – arbovirus infection inhibition | AID 1251 | arbovirus infection cell-based antiviral screen | inhibition, % at 10 µM | actives 0.37% (n = 200,000);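 active = inhibition from about 30%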;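 note: bluetongue infection of BSR cells; cell survival read as ATP light after 72 h; 0% = infected wells without compound and 100% = uninfected wells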
RecA intein inh – blocks M. tuberculosis RecA intein splicing; inhibition, %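 (about 9 µM by stock and volumes)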; AID 2221; P9WHJ3; cell-free RecA intein splicing, fluorescence; actives 0.75% (n = 290,000); in the data active = inhibition above about 30%; inconclusive = no clear call, values can overlap the other calls;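 note: 0% = vehicle wells and 100% = reference inhibitor control wells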
Target sequence (P9WHJ3 whole entry, looked up): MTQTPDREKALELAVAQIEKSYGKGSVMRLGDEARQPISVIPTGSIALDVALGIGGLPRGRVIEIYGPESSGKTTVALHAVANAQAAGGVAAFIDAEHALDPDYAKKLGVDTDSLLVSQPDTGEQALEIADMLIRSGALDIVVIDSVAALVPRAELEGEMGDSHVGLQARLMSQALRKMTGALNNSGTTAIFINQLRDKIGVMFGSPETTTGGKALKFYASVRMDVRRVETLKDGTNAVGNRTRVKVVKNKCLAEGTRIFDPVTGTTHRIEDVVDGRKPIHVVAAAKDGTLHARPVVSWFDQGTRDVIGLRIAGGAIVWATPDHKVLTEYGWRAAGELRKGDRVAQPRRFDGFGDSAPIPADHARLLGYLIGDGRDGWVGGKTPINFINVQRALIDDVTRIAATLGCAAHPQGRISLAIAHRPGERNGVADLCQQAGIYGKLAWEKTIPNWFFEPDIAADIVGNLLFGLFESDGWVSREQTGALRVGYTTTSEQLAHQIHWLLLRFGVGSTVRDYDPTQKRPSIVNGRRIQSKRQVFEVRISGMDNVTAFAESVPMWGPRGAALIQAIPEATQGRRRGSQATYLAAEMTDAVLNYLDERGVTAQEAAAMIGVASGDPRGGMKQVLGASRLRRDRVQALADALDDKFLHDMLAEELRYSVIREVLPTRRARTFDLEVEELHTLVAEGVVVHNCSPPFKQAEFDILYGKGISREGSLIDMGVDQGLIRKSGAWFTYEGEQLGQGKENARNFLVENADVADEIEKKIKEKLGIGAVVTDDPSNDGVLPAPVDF
YopH PTP inh – inhibitors of Yersinia enterocolitica YopH tyrosine phosphatase. AID 898. inhibition, %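 (about 10 µM by stock and volumes)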. fluorescence Ex485/Em525. actives 0.16% (n = 140,000);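 active = inhibition of 50% or more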;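 note: controls were vehicle for no effect and minimum signal wells for full effect; inactives centre near -20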
Arbovirus anti repeat – further read-out of Arbovirus anti, marked with its call; inhibition, %; measured here: 10K subset replicate screen; many hits read low in the repeat;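 first of two repeat runs on a subset; 0% = infected and 100% = uninfected wells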
Numbers without * were called inactive; ? = inconclusive; / = no result given. Not all compounds are listed; the hit share may differ from the screen's.

SMILES	Mtb bLac sens	Mtb H37Rv	Arbovirus anti	RecA intein inh	YopH PTP inh	others
CCOC(=O)N1CCN(C(=O)c2ccc(S(=O)(=O)NCc3ccco3)cc2)CC1	0	-4%	18	-0.2	/
COc1cc2c(cc1OC)CN(C(=O)Cc1c(F)cccc1Cl)CC2	-2	/	/	0.3	/
Cc1ccc(S(=O)(=O)NC2=C(N3CCN(c4ccccc4F)CC3)C(=O)c3ccccc3C2=O)cc1	8	5%	8	7.1	-26
O=C(Nc1ccccc1C(=O)NC(Cc1ccccc1)C(=O)NC1CCCCCC1)c1ccccc1 (centres undefined)	91	14%	-7	0.4	-31
Cc1ccc2nc3c(c(C(=O)OCC(=O)NC4CCS(=O)(=O)C4)c2c1)CCCC3 (centres undefined)	-6	-1%	-2	1.0	/
COc1ccc(Cl)cc1NC(=O)C(C)N1CCN(c2ccccn2)CC1 (centres undefined)	6	/	/	-4.8	/
CC(C)[C@H](NC(=O)c1ccc(Cl)c([N+](=O)[O-])c1)C(=O)O	3	-2%	/	-2.2	/
COCCCNC(=O)c1ccc(NS(C)(=O)=O)cc1	-1	-2%	2	0.8	8
Cc1oc2ccc(O)c(CN3CCOCC3)c2c1C(C)O (centres undefined)	-9	-1%	1	0.0	-39
COc1cc(NS(=O)(=O)c2ccc(NC(=S)NC(C)=O)cc2)nc(OC)n1	3	/	/	1.5	/
COc1ccc(Cn2c(-c3ccccc3C)nc3c(c(=O)c4ccccc4n3C)c2=O)cc1	-4	/	/	0.7	/
CC(NC(=O)C(=O)N/N=C/c1ccccc1)c1ccccc1 (centres undefined)	-1	-6%	-8	1.6	/
Cc1occc1C(=O)N1CCN(C(c2ccccc2)c2ccccc2)CC1	-17	-2%	-19	9.2	23
O=c1cc(-c2ccccc2)c2cc3c(cc2[nH]1)OCCO3	2	-1%	-7	-2.0	/
c1ccc(N2CC3CCc4ccccc4C3=N2)cc1 (centres undefined)	4	-6%	/	/	/
Cc1c(C(=O)N2CCN(c3ccc(C(F)(F)F)cn3)CC2)oc2ccccc12	5	-4%	5	16	-46
COc1ccc(OC)c(N2Cc3cc(C)c(C)cc3C2)c1	5	3%	12	-0.8	17
CCOC(=O)CN1C(=O)C2(OCCCO2)c2cc(Br)ccc21	6	/	/	-0.1	/
O=C(NCCCN1CCOCC1)c1cn(-c2ccccc2)nc1-c1cccs1	4	4%	4	-5.1	-23
O=C(N[C@H]1CCC(=O)N([C@H](CSc2ccccc2)Cc2ccccc2)CC1)OCc1ccccc1	1	/	/	4.0	/
CC(=O)Nc1ccccc1NS(=O)(=O)c1cccc([N+](=O)[O-])c1	0	-4%	0	-2.2	/
COc1ccc(CN2CC[C@H]3C=CC[C@@H](C(=O)Nc4ccc(Cl)c(C(F)(F)F)c4)[C@H]3C2=O)cc1OC	15	1%	/	8.4	/
CC1(C)CC(c2nc(-c3ccc(Br)cc3)cs2)CCS1 (centres undefined)	17	11%	10	5.3	-32
O=C(NCCCCNC(=O)c1ccco1)c1ccco1	-2	0%	6	-1.2	-41
O=C(NCc1ccncc1)Nc1ccccc1F	-3	7%	14	-0.6	/

Arranged by molar mass (ascending): part of the list above
SMILES	Mtb bLac sens	Mtb H37Rv	Arbovirus anti	RecA intein inh	YopH PTP inh	others
O=C(NCCCCNC(=O)c1ccco1)c1ccco1	-2	0%	6	-1.2	-41
O=c1cc(-c2ccccc2)c2cc3c(cc2[nH]1)OCCO3	2	-1%	-7	-2.0	/
COc1cc2c(cc1OC)CN(C(=O)Cc1c(F)cccc1Cl)CC2	-2	/	/	0.3	/
CCOC(=O)CN1C(=O)C2(OCCCO2)c2cc(Br)ccc21	6	/	/	-0.1	/
Cc1c(C(=O)N2CCN(c3ccc(C(F)(F)F)cn3)CC2)oc2ccccc12	5	-4%	5	16	-46
Cc1ccc2nc3c(c(C(=O)OCC(=O)NC4CCS(=O)(=O)C4)c2c1)CCCC3 (centres undefined)	-6	-1%	-2	1.0	/
CCOC(=O)N1CCN(C(=O)c2ccc(S(=O)(=O)NCc3ccco3)cc2)CC1	0	-4%	18	-0.2	/

The list continues.
SMILES	Mtb bLac sens	Mtb H37Rv	Arbovirus anti	RecA intein inh	YopH PTP inh	others
Nc1ccc(S(=O)(=O)NC(Cc2ccccc2)C(=O)O)cc1 (centres undefined)	-3	/	/	-0.2	/
CCn1cc(C(=O)NCc2cccnc2)c2cc(OC)c(OC)cc2c1=O	-1	-8%	0	0.3	-40	Arbovirus anti repeat=1
O=C(CCS(=O)(=O)c1cccc2nonc12)N1CCCc2ccccc21	10	3%	-1	0.1	0	Arbovirus anti repeat=3
CCCCNc1nnc(CCn2nc(C)c(Br)c2C)s1	1	-4%	-1	2.3	-30
C=CCC(NCc1ccco1)c1ccc(OC)cc1 (centres undefined)	-1	-6%	5	0.3	-137
Cc1c(NC2=NC3(CCCCC3)Cc3ccccc32)c(=O)n(C)n1-c1ccccc1	-1	-4%	-8	1.7	9
CCc1ccc(-c2nc(CSCC(=O)N3CCN(c4ncccn4)CC3)c(C)o2)cc1	5	/	-3	1.2	-43	Arbovirus anti repeat=-1
C=CCn1c(-c2cccn(Cc3ccc(Cl)cc3)c2=O)n[nH]c1=S	-2	-3%	-1	1.8	-23
Cc1csc(NC(=O)CCn2c(=O)sc3ccccc32)n1	4	-7%	11	0.6	-32
CCN(CC)CCNC(=O)Cn1nc(Cc2ccccc2)c2ccccc2c1=O	4	-1%	7	3.1	-41
CC(Oc1ccc2c3c(c(=O)oc2c1)CCCC3)C(=O)NCc1cccnc1 (centres undefined)	1	/	/	-2.2	/
COc1cc(-c2cc(=O)c3c(O)c(OC)c(OC)c(OC)c3o2)cc(OC)c1OC	-8	-3%	/	-1.0	/
CN(Cc1ccccc1)C(=O)CCNS(=O)(=O)c1ccc2c(c1)oc(=O)n2C	2	2%	0	-0.8	-43
COc1ccc(C(=O)Nc2cccnc2)cc1	5	-3%	2	2.2	-15
CCCOc1ccc(/C(O)=C2/C(=O)C(=O)N(CCCOC)C2c2cccnc2)cc1 (centres undefined)	-6	-11%	7	-3.1	-32
Nc1nc(SCC(=O)Nc2cc(C(F)(F)F)ccc2Cl)[nH]c(=O)c1NC(=O)c1ccco1	4	/	/	0.7	/
Oc1ccc2ccccc2c1CN1CCCC1	72	13%	3	-3.4	/
CCOc1cc(C(=O)N2CCC(CC3CC(c4ccccc4)=NO3)(C(=O)NCc3ccc(OC)cc3)CC2)cc(OCC)c1OCC (centres undefined)	82	10%	/	2.8	/
CC(=O)c1cc(-c2ccccc2)[nH]c1N1CCOCC1	4	-10%	6	0.7	-26
O=C(Nc1nccs1)c1ccc(COc2ccccc2)o1	0	/	/	-1.2	/
CCN(CC)c1ncnc2c1cnn2C	1	-4%	-1	-0.3	-32
O=S(=O)(c1cccs1)N1CN(Cc2ccccc2)c2nc3ccccc3nc21	-14	-1%	1	-1.0	-36
NNC(=S)NCCc1ccccc1	99	?	3	1.5	/
O=C1CCCN1CCC(=O)N1CCCC(CO)(Cc2ccccc2)C1 (centres undefined)	-4	/	/	1.1	/
CC(C(=O)NCCCN1CCOCC1)n1cccc1C(=O)c1ccccc1 (centres undefined)	-13	-4%	13	0.5	32
(cont.)
SMILES	Mtb bLac sens	Mtb H37Rv	Arbovirus anti	RecA intein inh	YopH PTP inh	others
CCC1(OC(=O)CN)C(=O)OCc2c1cc1n(c2=O)Cc2cc3ccccc3nc2-1 (centres undefined)	3	-4%	/	-40	/
Cc1cccc(-c2c3c(=O)n(C)c(=O)n(C)c3cn2C2CCCCC2)c1	13	?	-4	4.1	-4
O=C(O)CC(Cc1ccccc1)c1ccc2c(c1)OCO2 (centres undefined)	-8	/	2	2.1	-40
CC(C)(C)NC(=O)CN(Cc1ccc2c(c1)OCO2)C(=O)CNC(=O)c1cccs1	-5	0%	-7	0.8	/
COc1ccc(NC(=O)CSc2nc3ccsc3c(=O)n2Cc2ccccn2)c(OC)c1	0	-5%	6	/	/
CN(O)C(=O)Nc1ccc([N+](=O)[O-])cc1	6	3%	4	-5.0	/
COc1ccccc1Nc1nnc(SCC(=O)N2CC(=O)Nc3ccccc32)s1	2	2%	6	1.9	9
CSc1nc(C)c(Cc2c(F)cccc2Cl)c(=O)[nH]1	3	-5%	/	-3.7	/
NC(=O)c1c(NC(=O)C2CCCO2)sc2c1CCC2 (centres undefined)	/	-3%	2	-1.5	11
Cc1cc(NC(=O)c2cc3n(n2)C(C(F)(F)F)CC(c2ccco2)N3)no1 (centres undefined)	3	5%	-10	-3.8	-43	Arbovirus anti repeat=-3
CCOc1ccc(NC(=O)c2nn(C)cc2Br)cc1	8	-6%	-7	-1.5	0
CCOc1cccc(-c2cc(C(=O)N/N=C/c3ccc(OC)c(CN4CCOCC4)c3)c3ccccc3n2)c1	2	10%	-1	7.2	2
Cc1ccc(-n2ncc3c2CCCC3NC(=O)c2ccccc2N2CCOCC2)cc1C (centres undefined)	-1	/	/	5.9	/
CC(C)Cc1[nH]c(=O)c(C#N)c2c1CCC2	-4	-17%	5	-1.4	-54
O=C(Nc1ccccc1)Nc1ccc(O)c2ccccc12	7	/	/	60*	/
CCC1(C)Cc2c(c(=O)n(-c3ccccc3)c3ncnc(N)c23)CO1 (centres undefined)	-11	12%	-5	0.4	-26
O=C(Nc1cccc([N+](=O)[O-])c1)c1ccc2c(c1)OCCO2	-1	3%	-1	0.4	-28
Nc1cc(=O)[nH]c(SCCOc2ccccc2)n1	-3	-8%	3	-1.1	/
COc1ccc(N2CCN(C(=O)COC(=O)CCOc3ccccc3C)CC2)cc1	9	/	/	-0.6	/
Cc1cc(-c2ccco2)n(CC(=O)NCc2ccccc2)n1	-4	5%	3	0.8	-36
Cc1ccc(C(=O)N/N=C/c2ccc(N3CCOCC3)cc2)c(C)c1	-8	-2%	12	-2.6	/
CCOC(=O)Cn1cc(/C=N/NC(=O)CC#N)c2ccccc21	1	-1%	/	52*	/
COc1ccc2c(c1)CCc1c(C(=O)N3CCCCCC3)noc1-2	39	9%	-7	6.8	-39
CCc1nnc(NC(=O)c2ccc(S(=O)(=O)N3CCc4ccccc4C3)cc2)s1	2	-1%	1	2.3	-30
CC(=O)N1CCC(Nc2ccc(C)cc2)CC1	1	1%	12	-3.1	-33	Arbovirus anti repeat=2
Following part:
SMILES	Mtb bLac sens	Mtb H37Rv	Arbovirus anti	RecA intein inh	YopH PTP inh	others
Cc1sc2nc(CN3CCOCC3)[nH]c(=O)c2c1-c1ccccc1	-5	0%	-10	1.4	-7
Cc1ccc(NC(=S)Nc2cccc3cnccc23)cc1C	100	2%	23	/	/
C/C(=N\NC(=O)c1cc2ccccc2cc1O)c1ccccn1	96	/	/	-2.4	/
CC(C)Cc1nnc(NC(=O)C2CCN(C(=O)c3ccc(Cl)cc3)CC2)s1	2	/	/	-0.5	/
Cc1ccccc1SCC(=O)N1CCN(c2ccc(C(F)(F)F)cn2)CC1	2	4%	25	5.2	-32
CCOc1ccc(CN(C)CC(=O)Nc2cccc(C)c2)cc1OC	2	2%	12	1.2	/
Cc1cc(NS(=O)(=O)c2ccc(NC(=O)C(C)Oc3ccc(Cl)cc3)cc2)no1 (centres undefined)	/	-6%	12	0.6	-97
Fc1ccccc1/C=N/Nc1ccc(Cl)nn1	2	/	/	0.4	/
Cc1cc(Br)c(S(=O)(=O)NCc2ccncc2)cc1C	3	/	/	1.2	/
CCC(Sc1nc(C)cc(C)n1)C(=O)Nc1nccs1 (centres undefined)	-8	/	/	-0.9	/
Cc1cc(Cl)ccc1OCCCC(=O)NO	98	29µM*	-36	4.0	-9
COc1ccc(N2CC(C(=O)Nc3cccc(C)n3)CC2=O)cc1 (centres undefined)	8	-8%	1	/	/
COc1ccc(F)c(CN2CCC(CO)(Cc3cccc(C(F)(F)F)c3)CC2)c1	-2	9%	-22	1.4	/
CCn1c(SCC(=O)N/N=C/c2c[nH]c3ccccc23)nnc1-c1ccc(Cl)cc1	-3	-6%	-15	6.6	-24
N#C/C(=C/c1ccncc1)c1nc2ccccc2c(=O)[nH]1	-8	-2%	/	-12	/
O=C1c2ccccc2-c2n[nH]c(=O)c3ccc(N4CCCCC4)c1c23	2	22%	-16	2.9	/
O=C1[C@H]2[C@@H](c3ccc(F)cc3)N3C(=O)N(c4ccc(Br)cc4)C(=O)[C@@]3(Cc3ccccc3)[C@H]2C(=O)N1C1CCCCC1	-8	/	/	-0.2	/
COc1ccc(Nc2nc(N3CCCC3)nc(N3CCOCC3)n2)cc1	5	-1%	/	-0.8	/
Cc1nc(-c2ccc(S(=O)(=O)N3CCN(CCc4ccccc4)CC3)s2)cs1	3	5%	/	/	/
CCC(C)C(NC(=O)C1CCC(C)CC1)C(=O)Nc1ccc(OC)cc1 (centres undefined)	-8	/	/	0.9	/
O=C(CCc1nc(-c2cccs2)no1)Nc1cnc2ccccc2c1	89	>100µM*	-3	2.4	-19
COc1ccc2c(c1)[nH]c1c(=O)n(CC3CCCO3)cnc12 (centres undefined)	-6	-4%	3	0.0	-20
